Compound activity as filed in PubChem.
KAT2A inh – blocks human GCN5L2 histone acetyltransferase; Q92830; GCN5L2 HAT assay, ThioGlo1 CoA-SH fluorescence; Potency, µM (highest dose often 58.9 µM), for the others: at the top dose activity change, negative = inhibition, most hits filed as inhibitors; 390,000 tested, 0.21% active; active means well fitted inhibition curve with a large enough effect; inconclusive means small, poorly fitted or top-dose-only effect, or another doubt; inactive means no such curve, though single readings can be large or run the other way
Target sequence (Q92830 whole entry, looked up): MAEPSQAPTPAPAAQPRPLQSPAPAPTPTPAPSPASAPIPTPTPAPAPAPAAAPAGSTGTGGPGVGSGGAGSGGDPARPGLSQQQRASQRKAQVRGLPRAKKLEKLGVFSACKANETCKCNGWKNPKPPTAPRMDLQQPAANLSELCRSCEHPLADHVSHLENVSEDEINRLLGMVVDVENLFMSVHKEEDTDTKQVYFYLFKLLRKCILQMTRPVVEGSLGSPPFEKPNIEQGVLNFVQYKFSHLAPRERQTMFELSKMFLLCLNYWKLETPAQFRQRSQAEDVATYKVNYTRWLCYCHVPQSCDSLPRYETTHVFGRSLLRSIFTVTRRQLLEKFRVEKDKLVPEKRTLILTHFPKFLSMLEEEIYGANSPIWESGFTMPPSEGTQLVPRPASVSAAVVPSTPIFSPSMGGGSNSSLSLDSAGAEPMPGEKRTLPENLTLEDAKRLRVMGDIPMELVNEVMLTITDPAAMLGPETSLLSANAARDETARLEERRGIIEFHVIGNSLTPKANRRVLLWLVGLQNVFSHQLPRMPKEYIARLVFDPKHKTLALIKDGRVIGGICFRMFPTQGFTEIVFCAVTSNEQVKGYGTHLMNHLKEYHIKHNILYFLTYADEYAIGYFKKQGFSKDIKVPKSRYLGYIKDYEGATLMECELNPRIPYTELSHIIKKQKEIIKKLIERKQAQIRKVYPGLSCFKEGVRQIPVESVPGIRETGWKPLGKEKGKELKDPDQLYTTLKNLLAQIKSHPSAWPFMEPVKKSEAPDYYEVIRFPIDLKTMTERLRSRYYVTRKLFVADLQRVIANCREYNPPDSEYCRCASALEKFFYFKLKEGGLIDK
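Titration-based screen in which CoA formation is detected via maleimide probe ThioGlo1 (50uM) turning fluorescent on thiol reaction; substrates H3(1-25) 75uM and acetyl-CoA 70uM, GCN5L2 20nM, 20 min incubation at room temperature.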
Starred values were filed as active, the others as inactive; ? = inconclusive; & = joins results of further samples; [ ] = remark or other dose. On the % scale 0 is the no-effect control and ±100 the full control effect; potency means the concentration at half of the fitted maximal effect. These rows are one share of the data; most or all hits stand in other tables.

cpd	Structure	KAT2A inh
1	Cc1ncc(CN2CCC(CO)(CCc3ccccc3)CC2)s1	-1%
2	O=C(CCCn1c(=S)[nH]c2ccsc2c1=O)NCCc1ccccc1	-14%
3	CCCc1nnc(SCC(=O)N2CCCC(C)C2)n1CC1CCCO1 (stereo unspecified)	-5%
4	Cc1cc2ccccc2n2c(SCC(=O)N3CCOCC3)nnc12	-4%
5	O=C(COC(=O)c1ccccc1NCCO)NCC1CCCCC1	3%
6	C=CCn1c(SCc2csc(C)n2)nc2scc(-c3ccc(C)o3)c2c1=O	-11%
7	CC(C)=C1C2CCC1C(C(=O)Nc1cc(C)cc(C)c1)C2C(=O)O (stereo unspecified)	-6%
8	C=CCN1C(=O)c2ccc(C(=O)N(CC(C)C)c3c(N)n(CCCC)c(=O)[nH]c3=O)cc2C1=O	-8%
9	CS(=O)(=O)N(CCc1ccccc1)CC(=O)N1CCN(Cc2ccccc2)CC1	-1%
10	Cn1cccc1C(=O)NC(=O)COC(=O)c1cc([N+](=O)[O-])ccc1Cl	-3%
11	CCC(C)(C(=O)NC1CCCC1)N(CC1CCCO1)C(=O)c1ccc2c(c1)OCO2 (stereo unspecified)	-1%
12	O=C(CCNS(=O)(=O)c1cccc2nonc12)NC1CCCCC1	-15%
13	Cc1cccc(C)c1NC(=O)C1(N(Cc2ccco2)C(=O)Cn2nnnc2N)CCCCC1	2%
14	Cc1cccc(N2CCN(C(=O)c3ccc(NS(=O)(=O)c4c(C)noc4C)cc3)CC2)c1C	?
15	Cc1cccn2c(=O)c3cc(C#N)c(=NC(=O)c4cccs4)n(CC(C)C)c3nc12	-4%
16	COCCn1nnnc1C(c1ccc(Cl)cc1)N1CCSCC1 (stereo unspecified)	-3%
17	NC(=O)C1(N2CCCCC2)CCN(C(=O)NC2CCCCC2)CC1	-4%
18	CCOC(=O)CCc1c(C)nc2cc(-c3cc(OC)cc(OC)c3)[nH]n2c1=O	2%
19	COC(=O)C(Cc1ccc(O)cc1)NC(=O)C12CC3CC(CC(C3)C1)C2 (stereo unspecified)	2%
20	COc1cccc(C(Nc2ccccn2)c2c(NC(=O)c3ccco3)sc(C)c2C)c1 (stereo unspecified)	-15%
21	CCCCOC(=O)N1CCOCCOCCOCC1	-3%
22	COc1ccc(OCCSc2ncccn2)cc1	3%
23	CC(=O)c1cc2c(cc1NC(=O)c1cnn(-c3ccc(C)cc3)c1-n1cccc1)OCO2	3%
24	CCn1cc(C(=O)N2CCN(c3ccccn3)CC2)c2cc(OC)c(OC)cc2c1=O	2%
25	O=S(=O)(Nc1ccc(N2CCOCC2)cc1)c1ccc(F)cc1	-9%
26	Cc1ccc(/C=C(\C#N)c2nc3ccccc3c(=O)[nH]2)cc1	-13%
27	CC(=O)c1ccccc1NC(=O)COC(=O)/C(=C/c1ccccc1)n1nnnc1C	-22%
28	COc1ccc(C(C)=O)cc1CSc1nnc(-c2ccncc2)n1C	-2%
29	Cc1ccc(S(=O)(=O)c2nc(S(=O)(=O)c3ccccc3)sc2N2CCN(C)CC2)cc1	-2%
30	O=S(=O)(N1CCOCC1)n1cnc2ccccc21	-7%
31	CC(C)N1CCc2c(sc(NC(=O)c3ccco3)c2C(N)=O)C1	-7%
32	CCOc1ccc(N(C)S(=O)(=O)c2cc(-c3cc(C)no3)ccc2C(C)C)cc1	-14%
33	COc1ccc(-n2c(C)cc(-c3csc(NC(=O)c4ccc(S(=O)(=O)N(C)C)cc4)n3)c2C)cc1	-29%
34	Cc1ccc(-c2cc(C(=O)Nc3c(C)n(C)n(-c4ccccc4)c3=O)no2)cc1	-4%
35	COc1ccc(CCNC(=O)c2ccc(Cl)c(S(=O)(=O)N3CCCCCC3)c2)cc1	6%
36	C=CCN1C(=Nc2ccccc2)SC/C1=C\C(=O)OC	-5%
37	N#Cc1cccc(NC(=O)COC(=O)c2ccccc2Sc2ccccc2C#N)c1	-1%
38	COC(=O)[C@]1(Cc2ccccc2)N[C@H](CN(C)C(=O)c2ccc(F)cc2)[C@@H]2C(=O)N(Cc3ccccc3)C(=O)[C@@H]21	-3%
39	COc1ccccc1[C@@H]1C(c2cccc(C)c2)=NN(c2ccc(Br)cc2)[C@H]1C(=O)N1CCOC1=O	-22%&-25%
40	O=C(COC(=O)Cc1ccsc1)Nc1ccc(F)cc1Cl	-3%
41	COc1cc2c(cc1OC)n(CC(=O)c1ccc(C)cc1)c(=O)n1nc(CCn3nc(C)cc3C)nc21	-6%
42	COc1ccc(S(=O)(=O)Nc2cccc(C)c2C)c2cccnc12	-1%
43	CC(C)c1nnc(NC(=O)CSc2ccccc2)s1	-1%
44	O=C(Cc1ccc(F)cc1)N1CCN=C1SCc1ccc([N+](=O)[O-])cc1	-3%
45	S=C(NCc1ccccc1)NCc1ccccn1	-8%
46	CCN(CC)C(=O)[C@H]1CC(CC(=O)NC(C)(C)C)C(=O)N2CCc3c([nH]c4ccccc34)[C@]12C (stereo partly specified)	-4%
47	Cc1nc2c(-c3ccc(F)cc3)c(C)nn2c(C)c1CCC(=O)N1CCOCC1	0%
48	C[C@H](CO)N1C[C@H](C)[C@@H](CN(C)S(=O)(=O)c2cccs2)Oc2ccc(NC(=O)Nc3ccccc3)cc2C1=O	-9%
49	COc1ccc(NC(=O)COc2ccc(C)c(C)c2)cc1S(=O)(=O)N1CCCCC1	-14%
50	CC(C)CC(=O)Nc1ccc2oc(-c3cccnc3)nc2c1	-25%
51	Cc1c(NC(=O)c2ccccc2NS(=O)(=O)c2ccc(F)cc2)c(=O)n(-c2ccccc2)n1C	-4%
52	CCOC(=O)c1c(NC(C)=O)sc2c(O)c(Br)cc(Br)c12	-4%
53	Cc1cc(NC(=O)COc2ccccc2)n(-c2ccccc2)n1	-2%
54	Fc1cccc(CCN2CCNC[C@@H]2CC2CCCCC2)c1	-2%
55	Cc1cc(NC(=O)C2CCCO2)ccc1Br (stereo unspecified)	20%
56	Cc1cc(C)cc(NC(=S)N2CCN(c3ccccn3)CC2)c1	4%
57	CC(c1ccccc1)c1nnc(NC(=O)Nc2ccccc2)s1 (stereo unspecified)	0%
58	CCOC(=O)C(C#N)c1ccccn1 (stereo unspecified)	-6%
59	Cc1ccc(Cl)cc1N1CCN(C(=O)c2cnn(-c3ccc(Cl)cc3)c2C2CCNCC2)CC1	-6%
60	N#C/C(=C\c1ccccc1)C(=O)OCC(=O)N1CCCC1	-10%

2 records drawn at random from the list so far, as already listed:
cpd	Structure	KAT2A inh
57	CC(c1ccccc1)c1nnc(NC(=O)Nc2ccccc2)s1 (stereo unspecified)	0%
47	Cc1nc2c(-c3ccc(F)cc3)c(C)nn2c(C)c1CCC(=O)N1CCOCC1	0%

(list continues)
cpd	Structure	KAT2A inh
61	COc1cccc(CN2CCNC(=O)C2CC(=O)NCCN2CCOCC2)c1OC (stereo unspecified)	-2%
62	Cc1cc(NC(=O)c2cccc(S(=O)(=O)N3CCCCCC3)c2)no1	-7%[0.501 µM]
63	CCN(CC)S(=O)(=O)c1ccc(O)c(C(=O)OCC(=O)Nc2ccc(OC(F)(F)F)cc2)c1	-3%
64	COc1ccc(S(=O)(=O)N2CCN(C(=O)[C@H](Cc3ccccc3)NC(=O)c3ccco3)CC2)cc1	-6%
65	O=C(c1ccccc1Sc1c(Cl)cccc1[N+](=O)[O-])N1CCOCC1	-2%
66	Cc1ccc2[nH]c(C(=O)NN=C3CCCCC3)c(-c3ccccc3)c2c1	-1%
67	CN(C(=S)SCc1ccccc1)C1CCS(=O)(=O)C1 (stereo unspecified)	0%
68	C=CCOc1nc(N2CCCC2)nc(N2CCCC2)n1	-11%
69	CCOc1ncccc1C(=O)Nc1ccc(F)cc1	1%
70	Cc1cccc(C)c1NC(=O)Cn1c(=O)n(Cc2ccco2)c(=O)c2ccc(C(=O)NC3CCCC3)cc21	2%
71	COc1ccc(C(CC(=O)NCC(OC)OC)NS(=O)(=O)c2ccc(Cl)cc2)cc1 (stereo unspecified)	-7%
72	COc1ccc(S(=O)(=O)N2CCCCC2)cc1-n1cnnn1	-2%
73	CC1(C)CC(NC(=S)Nc2ccc([N+](=O)[O-])cc2)CC(C)(C)N1	-12%
74	Cc1ccc(C)c(N2CCN(C(=O)CCc3nc(-c4cccc(C(F)(F)F)c4)no3)CC2)c1	-10%
75	Cc1cc(Nc2cccc(C)c2C)n2ncnc2n1	2%

Compounds listed so far containing a cyano group, in the order listed:
cpd	Structure	KAT2A inh
15	Cc1cccn2c(=O)c3cc(C#N)c(=NC(=O)c4cccs4)n(CC(C)C)c3nc12	-4%
26	Cc1ccc(/C=C(\C#N)c2nc3ccccc3c(=O)[nH]2)cc1	-13%
37	N#Cc1cccc(NC(=O)COC(=O)c2ccccc2Sc2ccccc2C#N)c1	-1%
58	CCOC(=O)C(C#N)c1ccccn1 (stereo unspecified)	-6%
60	N#C/C(=C\c1ccccc1)C(=O)OCC(=O)N1CCCC1	-10%

Next part:
76: O=[N+]([O-])c1cc(-c2nc(-c3cccnc3)no2)ccc1NCc1ccccc1
  KAT2A inh = -10%

77: Cc1cc(C(=O)Nc2cccnc2)cs1
  KAT2A inh = -14%

78: COc1cc2[nH]c(=O)n(Cc3ccc(C(=O)N4CCN(c5cccc(C)c5C)CC4)cc3)c(=O)c2cc1OC
  KAT2A inh = -4%

79: Cc1ccc(NC(=O)Cc2nc(COC(=O)c3c(F)cccc3Cl)cs2)cc1
  KAT2A inh = -12%

80: CCOc1ccc(-c2nc(C#N)c(N3CCOCC3)o2)cc1
  KAT2A inh = -9%

81: O=S(=O)(NC1CCCC1)c1ccccc1Cl
  KAT2A inh = -5%

82: CC1CCCCN1C(=O)/C(=C\c1ccccc1)c1ccccc1 (stereo unspecified)
  KAT2A inh = -5%

83: Nc1c(C(=O)NCc2ccccc2)nnn1Cc1cccc(Cl)c1
  KAT2A inh = -8%

84: COC(=O)C1=C(C)NC(=O)CC1c1cccc(OC)c1OC (stereo unspecified)
  KAT2A inh = -2%

85: CCCn1c(SCC(=O)Nc2ccccc2N2CCCCC2)nc2c1c(=O)n(C)c(=O)n2C
  KAT2A inh = -11%

6 structures from above, arranged by formula weight, rising.
80: CCOc1ccc(-c2nc(C#N)c(N3CCOCC3)o2)cc1
  KAT2A inh = -9%

84: COC(=O)C1=C(C)NC(=O)CC1c1cccc(OC)c1OC (stereo unspecified)
  KAT2A inh = -2%

83: Nc1c(C(=O)NCc2ccccc2)nnn1Cc1cccc(Cl)c1
  KAT2A inh = -8%

76: O=[N+]([O-])c1cc(-c2nc(-c3cccnc3)no2)ccc1NCc1ccccc1
  KAT2A inh = -10%

85: CCCn1c(SCC(=O)Nc2ccccc2N2CCCCC2)nc2c1c(=O)n(C)c(=O)n2C
  KAT2A inh = -11%

78: COc1cc2[nH]c(=O)n(Cc3ccc(C(=O)N4CCN(c5cccc(C)c5C)CC4)cc3)c(=O)c2cc1OC
  KAT2A inh = -4%

More structures follow.
86: O=C(O)CNC(=S)N(Cc1ccccc1Cl)C1CCCC1
  KAT2A inh = -3%

87: O=C(c1cccs1)N1CCN(C23CC4CC(CC(C4)C2)C3)CC1
  KAT2A inh = ?

88: CCCCNC(=O)C1c2cc(OC)c(OC)cc2C(=O)N(C)C1c1cccs1 (stereo unspecified)
  KAT2A inh = -3%

89: Cc1ccc(S(=O)(=O)Oc2ccc(/C=N/NC(=O)c3cccnc3)cc2)cc1
  KAT2A inh = -4%

90: CCc1nnc(NC(=O)CCS(=O)(=O)c2ccc(C)cc2)s1
  KAT2A inh = -12%

91: COc1cc(C(=O)NC2CCN(CC(=O)NC3CCCCC3C)CC2)cc(OC)c1OC (stereo unspecified)
  KAT2A inh = 0%

92: CS(=O)(=O)N(CCc1ccccc1)CC(=O)N1CCN(c2ccccc2F)CC1
  KAT2A inh = -2%

93: CN(C)S(=O)(=O)c1cccc(NC(=O)C2Cc3ccccc3CN2C(=O)c2ccco2)c1 (stereo unspecified)
  KAT2A inh = -15%

94: O=C(CCNC(=O)c1ccccc1)NCc1ccccc1F
  KAT2A inh = -14%

95: O=C(NC1CCCCC1)Nn1c(-c2ccccc2)nc2ccccc2c1=O
  KAT2A inh = 25%

96: O=C(CN1CCCCCC1)N/N=C/c1cccc(Cl)c1
  KAT2A inh = 0%

97: CCOC(=O)c1noc2ncnc(N3CCN(c4cccc(Cl)c4)CC3)c12
  KAT2A inh = -6%

98: CC(C)(C)OC(=O)NCc1ccc(CNC(=O)c2[nH]cnc2C(=O)NC2CCN(C(=O)OC(C)(C)C)CC2)cc1
  KAT2A inh = -9%

99: COc1ccc(NC(=O)CSc2nc(N)c(C(=O)Nc3ccc(N(C)C)cc3)s2)cc1
  KAT2A inh = 0%

100: Cc1ccc(C(=O)Nc2ccccc2C(=O)NC(CC(=O)O)C(=O)O)cc1 (stereo unspecified)
  KAT2A inh = -10%

101: Cc1cc(C)c2c(n1)sc1c(=O)[nH]c(SCc3ccccc3)nc12
  KAT2A inh = -9%
